ClpP mod = qHTS Assay for Activators of ClpP; ATP-dependent Clp protease proteolytic subunit (Bacillus subtilis (strain 168)), P80244; purified B. subtilis ClpP, FRET peptide cleavage, 20 min; Potency, µM (titrated, usually from 57.5 µM), for inactives: at the highest dose activity change, negative = active; 1.9% of 340,000 active; AID 651965, 2013; active = well fitted falling curve with a large enough effect; inconclusive = small, poorly fitted or top-dose-only effect; inactive = no such curve, though single readings can be large or run the other way; note: potency is the fitted concentration of half-maximal effect; the source files actives as falling curves though it sought activators and does not explain the sign; nearly all actives have a fitted effect of over 65% in size; many hits overshoot -100%
Target sequence (P80244 whole entry, looked up): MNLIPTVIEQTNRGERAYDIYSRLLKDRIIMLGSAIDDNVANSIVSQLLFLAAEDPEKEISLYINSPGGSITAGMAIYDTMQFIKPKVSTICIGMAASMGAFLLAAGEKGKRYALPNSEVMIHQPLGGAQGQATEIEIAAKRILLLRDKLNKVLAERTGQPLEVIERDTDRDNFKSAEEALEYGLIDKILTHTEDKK
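Buffer: 100 mM Tris/HCl pH8, 100 mM KCl, 0.05% low protease BSA, 2.5% glycerol, 0.01% Tween-20. ClpP 10 microg/mL final; 20 min RT; delta FRET normalized to ADEP and DMSO controls.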
gsp agonist = qHTS for Agonist of gsp, the Etiologic Mutation Responsible for Fibrous Dysplasia/McCune-Albright Syndrome: qHTS; gsp mutant cells, cAMP HTRF, 30 min; control for the full effect not named in the record; Potency, µM (doses to about 76.9 µM), without a hit: at the highest dose activation (cAMP increase), usual class: activators; 0.13% of 340,000 active; AID 624287, 2012; active = well fitted activation curve with a large enough effect; inconclusive = small, poorly fitted or top-dose-only effect, or another doubt; inactive = no such curve, though single readings can be large or run the other way; cell line not stated here;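 note: phosphodiesterase inhibitor Ro 20-1724 added with compounds to block cAMP breakdown; potency is the fitted concentration of half-maximal effect; nearly all actives have a fitted effect of over 60% in size; about a fifth of the inactives were tested at one dose only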
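Cells in DMEM/10% FBS with G418 were pretreated with compounds in DMSO plus […] (300 uM stock) for 30 min at 37C. cAMP was measured by HTRF (cAMP-d2 plus anti-cAMP antibody-K) after 30 min at room temperature.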
Sfp PPTase inh = qHTS Assay for Inhibitors of Bacillus subtilis Sfp phosphopantetheinyl transferase (PPTase). 4'-phosphopantetheinyl transferase ffp (Bacillus subtilis), Q9F4F7. Biochemical Sfp PPTase activity, qHTS. Potency, µM, for the others: max response, negative = inhibition, usual class: inhibitors. 3.5% of 310,000 active; active = well fitted inhibition curve with a large enough effect; inconclusive = small, poorly fitted or top-dose-only effect, or another doubt; inactive = no such curve, though single readings can be large or run the other way;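 note: the enzyme is Sfp with the accession as filed and its product quenches rhodamine fluorescence; potency is the fitted concentration of half-maximal effect; 0% = enzyme reaction without inhibitor and -100% = no enzyme wells; top concentration of the series not given in the record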
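Compounds were incubated with enzyme (final 15 nM) for 15 min at room temperature before substrate addition started the reaction. Fluorescence at 525 nm excitation, 598 nm emission was recorded immediately and after 30 minutes.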
Menin-MLL FL inh = qHTS Assay for Inhibitors Targeting the Menin-MLL Interaction in MLL Related Leukemias: Competition With Fluorescein Labeled MLL-derived Peptide; FP activity change, % at 61.4 µM; 290,000 tested, under 10 active; Fluorescence polarization, fluorescein-MLL peptide displacement from menin; inconclusive = falling polarisation curve, or a change in total fluorescence; inactive = total fluorescence flat and polarisation flat or rising; no compound was filed as active; the % refers to the polarisation; negative = inhibition;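 note: % of control where 0% means no effect; inhibitors lower the polarisation; unlabelled MLL peptide was the positive control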
gsp antagonist = qHTS for Antagonists of gsp, the Etiologic Mutation Responsible for Fibrous Dysplasia/McCune-Albright Syndrome: qHTS. Potency, µM (series often up to 76.9 µM), without a hit: at the top dose activity change, negative = inhibition, usual class: inhibitors. gsp-mutant cells, cAMP HTRF, 30 min; control for the full effect not named in the record. AID 624288, 2012. 0.4% of 340,000 active; active = falling curve of any shape with a large fitted effect; inconclusive = falling curve, mostly with a smaller effect; inactive = flat or rising curve; cell line not stated here;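 note: intracellular cAMP measured with PDE inhibitor Ro 20-1724 present during compound exposure; potency is the fitted concentration of half-maximal effect; % is set by controls: 0 for no effect and ±100 for the full control effect; nearly all actives have a fitted effect of over 65% in size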
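HTRF cAMP read-out (cAMP-d2 plus anti-cAMP antibody-K in lysis buffer, 30 min RT). Before lysis, cells are exposed to compounds with […] for 30 min at 37C in DPBS containing Ca/Mg, BSA and Tween 20.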
D2 ag = Beta-Arrestin HTS for Positive Allosteric Modulators of the Human D2 Dopamine Receptor: Agonists; DiscoveRx PathHunter D2 beta-arrestin, luminescence, 90 min; 100% = 57 uM dopamine signal; activation, % (no concentration beside the values); 0.084% of 360,000 active; AID 624465, 2012; in the data active = activation above about 40%; inconclusive = about 15% to 40%; inactive = below about 15%; note: compound concentration not given in the record; the text of the record calls up to 30% inactive
Target sequence (P14416 whole entry, looked up): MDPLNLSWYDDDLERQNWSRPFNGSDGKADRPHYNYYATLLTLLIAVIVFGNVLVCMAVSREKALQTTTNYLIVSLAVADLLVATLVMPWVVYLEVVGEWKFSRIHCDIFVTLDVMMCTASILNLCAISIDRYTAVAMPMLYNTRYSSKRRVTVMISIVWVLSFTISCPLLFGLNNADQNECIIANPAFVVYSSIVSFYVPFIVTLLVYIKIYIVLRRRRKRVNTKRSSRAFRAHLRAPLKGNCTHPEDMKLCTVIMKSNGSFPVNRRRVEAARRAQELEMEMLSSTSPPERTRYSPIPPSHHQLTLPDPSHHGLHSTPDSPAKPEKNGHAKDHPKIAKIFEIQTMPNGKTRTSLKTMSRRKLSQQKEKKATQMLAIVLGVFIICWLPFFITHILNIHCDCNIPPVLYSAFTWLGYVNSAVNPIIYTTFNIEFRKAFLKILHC
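Agonist mode: compounds alone added to overnight-plated D2 PathHunter cells for 90 min at 37 C, with 57 uM final dopamine (EC100) defining full response. Beta-arrestin recruitment detected by chemiluminescent reagent, read after 1 h at ambient temperature.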
PINK1 expr mod = A Quantitative High throughput Screen to Identify Chemical Modulators of PINK1 Expression; AID 624263, 2012; 0.2% of 410,000 active; Potency, µM (highest dose often 76.6 µM), for inactives: at the highest dose activation (PINK1 increase), usual class: activators; PINK1 immunofluorescence, high-content cytometry, 24 h; active = well fitted activation curve with a large enough effect; inconclusive = small, poorly fitted or top-dose-only effect; inactive = flat fitted curve, though single readings scatter; cell line not stated here;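 note: potency is the fitted concentration of half-maximal effect; % of control where 0% means no effect; nearly all actives have a fitted effect of over 65% in size; a mitochondrial uncoupler was the plate control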
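Stable cell line treated 24 h with compounds at 5 concentrations (CCCP controls), then fixed and immunostained for PINK1 plus nuclear and cell stains; PINK1 immunofluorescence quantified by laser-scanning microplate cytometry.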
Numbers without * were called inactive; ? = inconclusive; / = not tested or not shown; & = joins results of further samples; [ ] = dose if it differs, or a comment.

mol	gsp agonist	D2 ag	PINK1 expr mod	Menin-MLL FL inh	ClpP mod	Sfp PPTase inh	gsp antagonist
Cc1cc(C)c(S(=O)(=O)/N=C2\C=C(Nc3ccc(C(=O)O)cc3)C(=O)c3ccccc32)c(C)c1	8%[15.4 µM]	-10	-0.9%	?	/	50µM*	0%
Cc1ccccc1CN(CC1CCC(C(=O)O)CC1)C(=S)Nc1ccccc1F (configuration not stated)	24%	0.9	-1.5%	5.7	/	-16%	-13%
Cn1c(SCc2n[nH]c(=S)o2)nnc1-c1ccccc1	12%	0.1	0.7%	/	-0.5%	-13%	16%
CCOC(=O)c1cccnc1SCC(=O)NCc1ccccc1	?	-2.4	3.5%[38.3 µM]	1.5	4.8%	-11%	-1%
COC(=O)CC1C(=O)NCCN1C(=O)Nc1cccc(Cl)c1 (configuration not stated)	7%[15.4 µM]	-3.9	1.6%	2.7	/	13%	-8%
CCN1CCN(C(=O)C2CCN(Cc3cc(Cl)ccc3O)CC2)CC1	-24%	0.5	/	1.7	1.6%	-12%	-9%
FC(F)(F)C1=CC(c2ccccc2)=NCCN1	-9%	-1.1	-0.9%	3.3	0.6%	14%	-11%
CC(=O)N1c2ccc(S(=O)(=O)N3CCCC(C(=O)NCc4ccccc4)C3)cc2CC1C (configuration not stated)	-88%[inhibitor]	-3.7	-0.1%	-1.4	1.3%	10%	-1%
CCS(=O)(=O)c1ccc2oc(SCC(=O)N3c4ccccc4CC3C)nc2c1 (configuration not stated)	-6%	-1.3	0.5%	2.7	-3.7%	-19%	?
O=C(COc1ccc(Br)cc1F)NCC1(N2CCCCC2)CCCCC1	?	3.9	2.3%	/	/	/	11%
CCOC(=O)c1csc(-c2csc(CCNC(=O)c3ccccc3)n2)n1	?	-4.9	2.2%	/	-0.9%	/	/
COc1ccc2oc(C(=O)OCC(=O)Nc3cc(S(=O)(=O)N4CCOCC4)ccc3OC)c(C)c2c1	-11%[15.4 µM]	-5.5	5.3%	/	10µM*	/	2%
Cc1cccc(C)c1NC(=S)N1CCCN(C)CC1	-13%[15.4 µM]	-5.3	1.0%	-3.8	/	8%	5%
COc1cc(/C=N/NC(=O)c2cc(C3CC3)[nH]n2)cc(OC)c1OC	?	0.2	-1.1%	-1.2	-11%	9%	13%
CCCNC(=O)C(Cc1ccc(Cl)cc1)NC(=O)c1ccc(C#N)cc1 (configuration not stated)	18%	-9.2	-0.1%	/	0.9%	/	6%
COc1ccc(/C=N\NC(=O)c2ccccc2F)cc1COc1ccc(F)cc1F	-26%	-2.7	0.7%	-0.5	-13%	9%	18%
COc1cc(OC)cc(-c2nnc(N(C)C(=O)c3ccncc3)s2)c1	-82%[inhibitor]	-6.3	1.6%	-0.5	37%	9%	-18%
CC1(c2nnc(-c3ccccc3)o2)CC(c2ccccc2)=NO1 (configuration not stated)	16%	-0.1	-1.0%	/	-3.7%	/	-4%
O=c1c2c(C(F)(F)F)cc(C(F)(F)F)nc2[nH]n1-c1ccccc1	2%	-7.8	?	4.2	0.5%	-8%	?
Cc1ccc(C(=O)CCC(=O)NN2C(=O)NC3(CCCCC3)C2=O)cc1	17%[15.4 µM]	-6.5	-0.7%	/	/	/	5%
O=c1c2cc(Cl)ccc2nc(-c2ccccc2)n1O	22%[15.4 µM]	-6.2	1.4%	7.8	/	11%	-7%
C#Cc1ccc(NC(=O)C2(C)CCN2C(=O)CC(c2ccccc2)c2ccccc2)cc1 (configuration not stated)	/	-2.8	1.6%	/	-5.0%	/	/
CN(C)c1ccc(CN2CCC(C(=O)NC(c3ccc(F)cc3)c3ccc4ccccc4n3)CC2)cc1 (configuration not stated)	/	-5.5	-1.3%	/	-3.1%	/	/
Cc1ccc(NC(=O)C2CC2C)cc1S(=O)(=O)N1CCOCC1 (configuration not stated)	-24%	-0.1	16%	/	1.8%	/	-6%
CC(C)(C)NS(=O)(=O)c1cccc(S(=O)(=O)c2cccc(S(=O)(=O)NC(C)(C)C)c2)c1	-4%	-1.1	2.2%[38.3 µM]	6.4	1.5%	24%	-21%
O=C(Nn1cnnc1)C1CCCN1S(=O)(=O)c1ccc(F)cc1 (configuration not stated)	-45%	0.7	-0.3%[38.3 µM]	0.7	-0.1%	15%	-4%
COc1ccc(NC(=O)N2c3ccccc3C(C)=CC2(C)C)cc1	8%[15.4 µM]	2.9	3.5%	-0.9	/	7%	4%
CCCn1c(=S)[nH]c2cc(C(=O)N3CCN(C4CCCCC4)CC3)ccc2c1=O	0%	-1.2	0.5%	-1.6	-1.3%	-1%	-6%
COC(=O)CNc1nc(-c2ccncc2)nc2ccccc12	12%[15.4 µM]	2.6	-1.0%	1.5	-1.0%	17%	-14%
CC(C)N(c1ccccc1)c1ccc(NC(=O)CCl)cc1	9%	-5.9	-1.4%	-2.1	-1.5%	3%	-21%
O=C(NC1CCS(=O)(=O)C1)/C(=C/c1ccc(Cl)cc1)NC(=O)c1ccccc1 (configuration not stated)	3%	-4.5	7.5%	-1.3	?	1%	11%
COc1ccc(CC(=O)NC(C)c2nnc(SCC(=O)Nc3cc(C)ccc3OC)n2C)cc1 (configuration not stated)	32%[15.4 µM]	-0.8	2.7%	0.7	-0.2%	-18%	-30%
O=C1[C@@H]2C(c3ccccc3Cl)=NO[C@@H]2C(=O)N1Cc1ccccc1	?	-0.3	-1.0%	-0.5	0.7%	-9%	1%
CC1CCCCN1Cc1nc2ccccc2c(=O)[nH]1 (configuration not stated)	-24%	-1.3	0.8%	0.3	-2.8%	-9%	11%
COc1ccc(CCNS(=O)(=O)c2ccc3c(c2)CC(C)N3C(C)=O)cc1OC (configuration not stated)	1%	4.0	0.3%	0.3	-0.8%	13%	-22%
Cc1ccc(NC(=O)COC(=O)CCc2c[nH]c(=O)[nH]2)cc1	26%	-2.6	-0.1%	-6.1	1.3%	-22%	13%
CCNC(=S)N1CCN(c2ncccn2)CC1	-40%[inhibitor]	-3.4	-0.5%	-1.3	-1.8%	-4%	6%
Cc1ccc(NC2=NC(c3ccc(C)cc3)n3c(nc(C)cc3=O)N2)cc1 (configuration not stated)	29%	-0.7	5.3%[38.3 µM]	2.2	-10%	15%	4%
Cc1oncc1C(=O)Nc1cccc(C#N)c1	-12%[15.4 µM]	-0.2	-0.9%	/	-3.2%	2%	5%
O=C(c1cc(-c2cccs2)on1)N1CCN(c2ccccc2)CC1	-19%	3.2	-3.6%	0.2	-3.8%	7%	2%
Cc1cc(C(=O)Nc2sc3c(c2C#N)CCC(C(C)(C)C)C3)no1 (configuration not stated)	28%	0.4	18%[38.3 µM]	6.4	-21%	-2%	-10%
CCOC(=O)c1c(C)oc2cc(Cl)c(O)c(CN(C)C)c12	2%[15.4 µM]	-1.4	-0.1%	-0.5	/	-5%	1%
CC(C)c1ccccc1NC(=S)NC1CCCCC1	21%[15.4 µM]	-4.9	0.8%	-0.2	/	11%	-8%
N#CCCN(/N=C/c1cccnc1)C1=NS(=O)(=O)c2ccccc21	17%	1.8	1.0%	-3.8	/	21%	-5%
COC(=O)c1cn(-c2ccccc2)c(C)c1C(=O)OC	-11%	3.5	-1.4%	?	-2.4%	26%	-9%
CCC(CC)C(=O)NCc1ccc2c(c1)cc(C)n2C	38%	-3.4	?	-0.1	-14%	14%	4%
O=C(Nc1ccccc1N1CCCCC1)c1ccc(Cl)cc1	-2%[15.4 µM]	-1.3	25%	4.0	0.1%	-11%	-2%
CC(C)N(CC(N)=O)C(=O)Cc1coc2cc3c(cc12)CCC3	6%	1.9	0.1%	4.4	-5.3%	-7%	3%
Cc1cccc(C(=O)NC2CCN(CC(=O)NCc3cccs3)CC2)c1	0%[15.4 µM]	-11	4.1%	?	1.2%	-6%	5%
O=C(NC1CCSc2ccccc21)c1cccc(OC(F)F)c1 (configuration not stated)	-65%[15.4 µM]	2.0	-0.9%	-1.5	/	-10%	-11%

Next entries follow:
mol	gsp agonist	D2 ag	PINK1 expr mod	Menin-MLL FL inh	ClpP mod	Sfp PPTase inh	gsp antagonist
NC(=O)N/N=C/c1ccc(-c2ccc([N+](=O)[O-])cc2)o1	6%	-4.5	0.7%	6.0	0.7%	?	-14%
O=C(O)c1ccc(Oc2cc(Oc3ccc(C(=O)O)cc3)cc([N+](=O)[O-])c2)cc1	7%	1.0	0.7%	-11	/	5%	22%
C#CCNC(=O)C1=C[C@@H](c2ccccc2)C[C@@H](OCCCCO)O1	/	-3.2	6.6%	/	-3.9%	/	2%
COC(=O)/C(=N/Nc1ccccc1C)Sc1nnc(C(O)c2ccccc2)n1-c1ccccc1 (configuration not stated)	5%[15.4 µM]	-1.1	-0.4%	0.9	/	?	-1%
CCn1c(Cc2ccccc2)nnc1SCC(=O)Nc1nccs1	10%	-1.3	?	2.7	-6.8%	-18%	-1%
O=C(Nc1cccnc1Cl)c1cc(-c2ccc(Cl)cc2)on1	?	-0.3	6.8%&-0.5%	0.3	1.1%	9%	0%
Cc1nc(SCC(=O)N2CCCC2=O)c2c(C)c(C)sc2n1	?	-2.3	-0.9%	/	-2.6%	/	/

Source: PubChem
